Compound activity: PubChem, National Center for Advancing Translational Sciences (NCATS)
hNpr1 antagonist = antagonists of human natriuretic peptide receptor Npr1 | Potency, µM (doses to about 46.3 µM), inactives show at the top dose activity change, negative = inhibition, most hits filed as inhibitors | actives 1.6% (n = 76,000) | P16066 | AID 1347048 | HEK293 hNpr1 GloSensor cGMP, ANP-stimulated luminescence; active = well fitted inhibition curve with a large enough effect; inconclusive = small, poorly fitted or top-dose-only effect; inactive = no such curve, though single readings can be large or run the other way;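 also: nearly all actives have a fitted effect of over 60% in size; nearly all hits also lower the signal before the agonist is added; a reference antagonist and vehicle were the controls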
Target sequence (P16066 whole entry, looked up): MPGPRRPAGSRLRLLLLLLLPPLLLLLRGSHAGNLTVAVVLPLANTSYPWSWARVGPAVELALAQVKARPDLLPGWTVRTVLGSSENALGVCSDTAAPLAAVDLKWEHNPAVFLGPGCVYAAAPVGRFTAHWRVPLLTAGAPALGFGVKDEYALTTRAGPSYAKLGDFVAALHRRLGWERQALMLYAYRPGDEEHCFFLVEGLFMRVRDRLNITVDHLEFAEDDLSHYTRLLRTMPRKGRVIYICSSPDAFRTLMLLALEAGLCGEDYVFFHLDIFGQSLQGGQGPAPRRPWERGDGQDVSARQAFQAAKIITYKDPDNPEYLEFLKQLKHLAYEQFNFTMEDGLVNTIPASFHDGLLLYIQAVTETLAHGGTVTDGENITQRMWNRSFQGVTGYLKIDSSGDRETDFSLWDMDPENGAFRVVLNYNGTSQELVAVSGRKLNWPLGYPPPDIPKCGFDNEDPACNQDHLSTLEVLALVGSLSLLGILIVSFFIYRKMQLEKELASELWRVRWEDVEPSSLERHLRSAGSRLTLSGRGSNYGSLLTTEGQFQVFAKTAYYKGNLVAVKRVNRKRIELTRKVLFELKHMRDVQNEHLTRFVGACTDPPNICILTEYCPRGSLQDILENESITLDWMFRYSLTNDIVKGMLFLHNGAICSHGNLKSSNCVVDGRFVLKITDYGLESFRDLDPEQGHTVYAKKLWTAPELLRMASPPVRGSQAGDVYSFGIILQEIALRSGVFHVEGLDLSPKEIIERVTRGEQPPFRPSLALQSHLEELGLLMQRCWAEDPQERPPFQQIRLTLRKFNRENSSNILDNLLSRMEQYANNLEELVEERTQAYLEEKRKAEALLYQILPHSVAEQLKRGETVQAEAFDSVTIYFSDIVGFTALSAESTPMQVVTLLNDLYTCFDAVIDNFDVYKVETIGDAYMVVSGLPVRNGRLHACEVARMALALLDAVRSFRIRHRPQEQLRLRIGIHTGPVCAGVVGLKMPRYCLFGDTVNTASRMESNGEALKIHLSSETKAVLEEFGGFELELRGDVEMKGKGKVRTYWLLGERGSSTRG
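HEK293 cells stably expressing human Npr1 and cGMP GloSensor pGS-40F, loaded 2 h with 2% GloSensor reagent, given compound 30 min at room temperature. Luminescence read before and 20 min after 0.1 nM hNppA.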
Active calls of the source: *; & = joins results of further samples; [ ] = dose if it differs, or a comment. % is scaled to controls: 0 for no effect and ±100 for the full control effect; potency is read from the fitted curve at half-maximal effect. A portion of the library; count on the stated rates, not on these rows.

`COc1ccc(-c2cc(C[C@@H]3CC[C@H](O)[C@@H](CNC(=O)NCc4ccccc4)O3)no2)cc1` gave hNpr1 antagonist -18%.
Screening Cc1cc2cc(-c3c(C)noc3C)nc(NCCN(C)C)c2o1 returned hNpr1 antagonist -3%[70.6 µM].
For COCC(=O)N[C@H]1C[C@H]2C(=O)Nc3ccc(-c4ccsc4)cc3C(=O)N2C1 the results were hNpr1 antagonist -1%[70.6 µM].
`O=S(=O)(c1cccc(C(F)(F)F)c1)N1CCC(n2cnnc2C2CC2)CC1` gave hNpr1 antagonist -25%.
Screening CCc1cc(NC(CCO)c2ccccc2)n2nc(C)c(C)c2n1 (stereo unspecified) returned hNpr1 antagonist -14%.
`Cn1cc(CN2CCN(C(=O)c3ccsc3)CC2)ccc1=O` gave hNpr1 antagonist -4%.
`COCCNC(=O)C[C@@H]1C[C@@H](C(C)C)[C@H](CNC(=O)C2CC2)C=C1C` gave hNpr1 antagonist -1%[70.6 µM].
`c1csc(-c2nc3ccncc3[nH]2)c1` gave hNpr1 antagonist 11%[70.6 µM].
`CCN(C(=O)CN1C(=O)NC(c2ccc(C)cc2)C2=C1COC2=O)c1cccc(C)c1` (stereo unspecified) gave hNpr1 antagonist 2%.
CN(C)c1cc(N2CCCC(NC(=O)Cc3cccs3)C2)ncn1 (stereo unspecified) was read as hNpr1 antagonist 4%.
`O=C(CCC[C@H]1NC[C@@H]2C[C@H]1CN(Cc1ccccc1)C2)NCCc1cccnc1` gave hNpr1 antagonist -1%.
`O=C(NCc1ccccc1)[C@@H]1Cc2nc[nH]c2CN1C(=O)NC1CCCCC1` gave hNpr1 antagonist -2%[70.6 µM].
For O=C(c1ccncc1)N1CCC(n2cc(-c3nc(-c4ccccc4)no3)nn2)CC1 the results were hNpr1 antagonist -29%.
For CN1CCCN(C(=O)c2ccc(Cl)cc2)c2ccccc21 the results were hNpr1 antagonist -18%.
CCn1ccc(C(=O)N[C@@H]2CN(Cc3ccccc3)C[C@H]2CN(C)C)n1 was read as hNpr1 antagonist 2%.

Next part, overlapping the part above by 4 compounds.
`O=C(NCc1ccccc1)[C@@H]1Cc2nc[nH]c2CN1C(=O)NC1CCCCC1` gave hNpr1 antagonist -2%[70.6 µM].
For O=C(c1ccncc1)N1CCC(n2cc(-c3nc(-c4ccccc4)no3)nn2)CC1 the results were hNpr1 antagonist -29%.
For CN1CCCN(C(=O)c2ccc(Cl)cc2)c2ccccc21 the results were hNpr1 antagonist -18%.
CCn1ccc(C(=O)N[C@@H]2CN(Cc3ccccc3)C[C@H]2CN(C)C)n1 was read as hNpr1 antagonist 2%.
Screening O=C(Cc1ccc(F)cc1)N1CC(F)(F)C[C@H]1c1nc(C2CC2)no1 returned hNpr1 antagonist 6%.
For O=C(Nc1cccc(Cl)c1)N1CCC2(CC1)SCC(=O)N2Cc1ccco1 the results were hNpr1 antagonist -11%.
For CCc1noc(CN(C(=O)c2oc3ccc(C)cc3c2C)C(C)C)n1 the results were hNpr1 antagonist 2%.
Screening COc1ccc(-c2nc(CN3CCN(CCO)CC3)c(C)o2)c2ccccc12 returned hNpr1 antagonist 4%.
`Cc1ccc(C(=O)NC(C(=O)NC2CC2)C2CCN(C(=O)c3ccc4c(c3)OCO4)CC2)cc1` (stereo unspecified) gave hNpr1 antagonist -11%.
For CCN(CC)c1ccc(C(=O)NCc2nnc3ccc(-c4ccc(OC)cc4)nn23)cc1 the results were hNpr1 antagonist -11%.
`COc1ccc(C)cc1NC(=O)COc1ccc(-c2nnc3n2CCCC3)cc1` gave hNpr1 antagonist 1%.
For COC(=O)N1CCC2(CC1)CC(=O)N(c1ccccc1)c1ccccc1O2 the results were hNpr1 antagonist -7%.
Screening CSc1cccc(NC(=O)Nc2ccc(-c3nnc4n3CCCC4)cc2)c1 returned hNpr1 antagonist 0%.
Screening CN(Cc1ccc(N2CCCCC2)cc1)C(=O)c1ccc2c(c1)C(O)CCCCCN2C (stereo unspecified) returned hNpr1 antagonist 14µM*.
`CCC(C)NC(=O)C(NC(=O)c1ccc(F)cc1)C1CCN(C(=O)c2cccc(F)c2)CC1` (stereo unspecified) gave hNpr1 antagonist 0%.
For CNC(=O)[C@@H]1CNC[C@H]1c1nc(C)no1 the results were hNpr1 antagonist 4%.
CCn1nc(C)c(CNC(=O)C2(CCO)CC23CCOCC3)c1C (stereo unspecified) was read as hNpr1 antagonist -6%.
COCCN1CC(CO)C2(CCN(C(=O)c3cc(Cl)ccc3OC)CC2)C1 (stereo unspecified) was read as hNpr1 antagonist 1%.
`N#Cc1cccnc1N1CCCC(CO)(CCCc2ccccc2)C1` (stereo unspecified) gave hNpr1 antagonist -3%.

Pulled by compound from the entries so far:
`Cc1ccc(C(=O)NC(C(=O)NC2CC2)C2CCN(C(=O)c3ccc4c(c3)OCO4)CC2)cc1` (stereo unspecified) gave hNpr1 antagonist -11%.
For CCc1noc(CN(C(=O)c2oc3ccc(C)cc3c2C)C(C)C)n1 the results were hNpr1 antagonist 2%.
For O=C(Nc1cccc(Cl)c1)N1CCC2(CC1)SCC(=O)N2Cc1ccco1 the results were hNpr1 antagonist -11%.
`COc1ccc(C)cc1NC(=O)COc1ccc(-c2nnc3n2CCCC3)cc1` gave hNpr1 antagonist 1%.
CCn1nc(C)c(CNC(=O)C2(CCO)CC23CCOCC3)c1C (stereo unspecified) was read as hNpr1 antagonist -6%.

Next part:
COc1ccc(C(=O)N2CCC3(CC2)OC(=O)N(Cc2csc(C)n2)C3(C)c2ccccc2)cn1 (stereo unspecified) was read as hNpr1 antagonist 3%.
COCC1CN(Cc2c[nH]c3ccccc23)CC12CCNCC2 (stereo unspecified) was read as hNpr1 antagonist 4%.
`CC(=O)N(C1CC1)C1CCOC2(CCN(C(=O)c3nccc4ccccc34)CC2)C1` (stereo unspecified) gave hNpr1 antagonist -10%.
`COc1ccc(C(C)NC(=O)C2CCN(c3cc(C(F)(F)F)ncn3)CC2)cc1` (stereo unspecified) gave hNpr1 antagonist 16µM*.
CC1(C)CN(C(=O)c2ncc(F)cc2F)CCC1(O)CN1CCOCC1 (stereo unspecified) was read as hNpr1 antagonist 2%.
For CC1CCCCN1c1ccc(C(N)=O)cc1NC(=O)CS(C)(=O)=O (stereo unspecified) the results were hNpr1 antagonist 4%.
For O=C(Cc1ccsc1)N1CC2CC(C1)[C@H]1CCCC(=O)N1C2 (stereo partly specified) the results were hNpr1 antagonist -1%.
CC(=O)N1CC2(Cc3ccccc31)CN(C(=O)c1ccc(C(F)(F)F)cc1)C2 was read as hNpr1 antagonist 2%.
Screening Cc1cn2cc(C(=O)N3CCC(Oc4cccnc4)CC3)ccc2n1 returned hNpr1 antagonist 1%.
For CC(=O)NC1(C)CCCN(Cc2cccc(-c3c(C)noc3C)c2)C1 (stereo unspecified) the results were hNpr1 antagonist 4%[70.6 µM].
COc1ccccc1CN1Cc2cc(NC(=O)Cc3ccc(F)cc3)ccc2OC(C)C1=O (stereo unspecified) was read as hNpr1 antagonist -15%.
Screening CN(Cc1ccc(F)cc1)Cc1ccsc1 returned hNpr1 antagonist 0%[70.6 µM].
`CC(C)CN1C(=O)c2cccn2CC1C(=O)N1CCN(C)CC1` (stereo unspecified) gave hNpr1 antagonist -5%.
For COc1ccccc1OCc1cc(C(=O)NCC2COCCO2)n[nH]1 (stereo unspecified) the results were hNpr1 antagonist 0%.
Screening C=CCN1CCN(C(=O)CCC[C@@H]2[C@H]3CCCN4CCC[C@@H](CN2Cc2ccccc2)[C@@H]34)CC1 returned hNpr1 antagonist 7%.
`CC1=C[C@@H](CN2CCC(C(N)=O)CC2)[C@H](C(C)C)C[C@H]1Cc1nnc(C)o1` gave hNpr1 antagonist -2%[70.6 µM].
For Cc1ccc(-c2nnc3ccc(NCCc4ccccn4)nn23)nc1 the results were hNpr1 antagonist -1%[70.6 µM].
For O=C(NCc1cc(F)ccc1F)c1cccnc1N1CC2CC(C1)[C@H]1CCCC(=O)N1C2 (stereo partly specified) the results were hNpr1 antagonist -1%.
COC1CCN(S(=O)(=O)N2C[C@H](c3ccc(C)o3)[C@@H](N)C2)CC1 was read as hNpr1 antagonist 1%.
For COc1ccc(C(=O)NCC(=O)N2CCCCCNC(=O)CC2c2ccccc2)cc1 (stereo unspecified) the results were hNpr1 antagonist 5%.
CC(C)NC(=O)NC[C@H]1O[C@@H](CO)[C@@H](O)[C@H]1N1CCN(c2ccccn2)CC1 was read as hNpr1 antagonist 0%.
Screening Cc1c(C(=O)N2CC[C@@](O)(C3CCOCC3)[C@H](C)C2)n(C)c2c(C)cccc12 returned hNpr1 antagonist 4%.
Screening COc1ccc(CC(=O)N2CC(N(C3CCOCC3)S(C)(=O)=O)C2)cc1OC returned hNpr1 antagonist 4%.
O=C(c1ncccn1)N1CC(F)(F)C[C@H]1c1nc(C2CC2)no1 was read as hNpr1 antagonist 1%.
CCn1cc(-c2ccc(C)cc2)cc1C(=O)O was read as hNpr1 antagonist 2%.
C#CCNC(=O)C1CCN(C(=O)C2CN(c3cccc(OC)c3)C(=O)N2)C1 (stereo unspecified) was read as hNpr1 antagonist 19%.
Screening CCc1cc(=O)n(CC(=O)Nc2ccc(Br)cc2)c(N2CCOCC2)n1 returned hNpr1 antagonist -1%.
`COc1ccc(C(=O)NC2CCN(c3cc(-c4ccccc4)[nH]n3)C2)c(OC)c1` (stereo unspecified) gave hNpr1 antagonist -3%.
`Cc1nn2c(c1-c1ccccc1-c1ccccc1)N(CCC(C)C)CCC2` gave hNpr1 antagonist 1.6µM*.
Screening CC(C)c1cc(NCC2CCCCCN2)nc(N)n1 (stereo unspecified) returned hNpr1 antagonist 0%.
`Cc1noc(C)c1C(=O)N1CCCCCCNC(=O)CC1` gave hNpr1 antagonist -2%.
Screening O=C(NCc1ccco1)N[C@@H]1[C@@H](Cc2ccccc2)[C@H]2OCC[C@@H]12 returned hNpr1 antagonist 4%.
Cc1ccc(-n2cccc2CC(=O)NC(C)c2ccccn2)cc1 (stereo unspecified) was read as hNpr1 antagonist -2%.
Screening O=C(NCC1CC1)c1ccnc(-c2nnc3ccc(Nc4ccccc4)nn23)c1 returned hNpr1 antagonist -2%[70.6 µM].
Cc1ccsc1CN1CCOc2cc([S+](=O)([O-])Nc3cccnc3)ccc2C1 was read as hNpr1 antagonist inconclusive.
`CN1C[C@H](NCc2ccc(F)cc2)CCC[C@@H](C(=O)NC2CCOCC2)CC1=O` gave hNpr1 antagonist 7%[70.6 µM].
For N#Cc1ccc(O[C@@H]2COCC[C@H]2NC(=O)CCCn2cccn2)cc1 the results were hNpr1 antagonist 5%.
For Cc1cc(OC2CN([S+](=O)([O-])c3cccs3)C2)ccc1F the results were hNpr1 antagonist -6%&6%[70.6 µM].
Screening Cc1ccc(C)c(NC(=O)N2CCCC(Cn3c(C4CC4)nc4cccnc43)C2)c1 (stereo unspecified) returned hNpr1 antagonist 4%.
`COCCN1C(=O)[C@H]2CN(Cc3cc(Br)ccc3F)C[C@H]2C1=O` gave hNpr1 antagonist -1%.
Screening CNCCN1C(=O)CC[C@H]2CN(C(=O)NCc3ccccc3)CC[C@H]21 returned hNpr1 antagonist 23%.
For COc1ccc2c(=O)n(CC(=O)N3CCCOCC3)ccc2c1OC the results were hNpr1 antagonist 3%.
`O=C(N[C@@H]1CCOC[C@H]1Oc1cccc(F)c1)c1cnc2ccccn2c1=O` gave hNpr1 antagonist -2%.
NC(=O)C1(c2nc(COc3ccccc3)nn2-c2ccc3c(c2)OCO3)CC1 was read as hNpr1 antagonist 1%.
`CCc1noc(-c2ccn3c(CNC(=O)c4cc(F)ccc4F)nnc3c2)n1` gave hNpr1 antagonist -1%.
For Cc1noc(C)c1S(=O)(=O)N1CCCCCCNC(=O)[C@@H]2CCC[C@@H]21 the results were hNpr1 antagonist -2%.
O=C(c1cccs1)N1CCC(OCC2CC2)C1 (stereo unspecified) was read as hNpr1 antagonist -3%.
For C=CCNC(=O)c1coc(COc2ccc3ccc(OC)cc3c2)n1 the results were hNpr1 antagonist 10µM*.
For CCOc1ccccc1CN1CCc2nc(N3CCOCC3)[nH]c(=O)c2CC1 the results were hNpr1 antagonist 0%.
`O=c1[nH]nc2n1CCC(NS(=O)(=O)c1ccc3c(c1)CCCC3)CC2` (stereo unspecified) gave hNpr1 antagonist inconclusive.
Screening CCn1cc(-c2ccc(Cl)cc2)cc1C(=O)N1CCN(C(C)C)CC1 returned hNpr1 antagonist -9%.
For Cc1ncsc1C(=O)N1CCCC(C)(Cc2ccc3c(c2)OCO3)C1 (stereo unspecified) the results were hNpr1 antagonist -7%.
`CN(C)C[C@@H]1CN(c2ncccn2)C[C@H]1NC(=O)c1cccc2[nH]ccc12` gave hNpr1 antagonist 4%.
`COc1ccc(C2Cn3nnc(C(=O)N4CCC(C(=O)NCC(C)C)CC4)c3CO2)cc1` (stereo unspecified) gave hNpr1 antagonist 4%.
Screening C#CCN(Cc1nc(-c2cc(OC)ccc2F)oc1C)C1CCCCC1 returned hNpr1 antagonist 14%.
`COc1ccccc1C(=O)NC1CCN(c2cc(-c3ccc(Cl)cc3)[nH]n2)CC1` gave hNpr1 antagonist -22%.
Screening Cc1ccc(CN2C(=O)[C@@H]3C[C@@H](O)CN3C3(CN(Cc4ccccn4)C3)C2=O)o1 returned hNpr1 antagonist -7%[70.6 µM].
`Cc1nc(C(=O)N2CCC(Cc3nncn3-c3ccccc3)CC2)cs1` gave hNpr1 antagonist -1%.
`CN1CCN(C[C@@H]2CN(C(=O)C3(c4ccccc4)CC3)C[C@@H]2CO)CC1` gave hNpr1 antagonist 1%.
For COc1ccc(OCC(=O)N2CCC[C@H]2c2nc(-c3ccccc3)no2)cc1 the results were hNpr1 antagonist -1%.
